Mtb hypoxia inh = PubChem AID 1159583. hit rate 0.1% among 300,000. fluorescence inhibition, % (no concentration beside the values). M. tuberculosis hypoxia-regulated fluorescent reporter, fluorescence;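 active means 35 to 45% if threefold the growth effect, above 45% if 1.5-fold the growth effect; inactive means the rest, general growth blockers included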;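 further: wells of about 50 µL received 100 nL stock; 0% = vehicle wells and 100% = reference inhibitor wells; whole bacteria with a GFP reporter of the hypoxia response; strong numbers were not always called active; many hits fall short of the cut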
ugtP null kill = growth inhibition of ugtP-null S. aureus, primary screen, RN4220 ugtP deletion, OD600; 16 h; some inactives read as strong as hits; growth inhibition, % (no concentration beside the values); hit rate 0.54% among 330,000; AID 1259309, 2017;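 active means z-score under -3 and OD600 up to 0.15 on both plates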;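 further: plate controls were untreated wells for no effect and antibiotic for full effect; wells of about 80 µL received 100 nL stock; the first replicate is given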
BJeLR viability = MLPCN primary cell-based screen for lethality selective to Ras in HRASV12 cells; hit rate 0.17% among 300,000; BJeLR (HRASV12) viability, CellTiter-Glo ATP luminescence, 48 h; reference of the scale not given here; AID 1554, 2009; inhibition, % (concentration not given with the values);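 active means replicate mean above 50%; inconclusive means above 50% but judged a plate artefact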;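 further: 50 nL library stock added to about 25 µL; numbers are from one replicate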
Bead autofluor = counter-screen for toxin protease inhibitors: compound fluorescence. compound autofluorescence counterscreen, microsphere flow cytometry; stronger effect = higher value. fluorescence intensity (no concentration beside the values). hit rate 3.1% among 360,000;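 active means at least 3 SD above the mean of all compounds, about 16000 in these data; inconclusive means too few beads counted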;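 further: 100 nL of 1 mM stock went into each well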
PrP 5UTR inh = inhibition of PrP 5' UTR reporter expression; cell-based PrP 5' UTR mRNA reporter, plate reader; inhibition, % (concentration not given with the values); hit rate 0.35% among 340,000; AID 488862, 2010;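 active means every replicate at 50% or more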;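 further: 0 = median of the neutral control wells; tested in H4 reporter cells; numbers are from one replicate; inactives centre near -14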
Sa RN4220 lethal = growth inhibition of S. aureus RN4220, primary screen, OD600 | 16 h | inhibition, % (concentration not given with the values) | hit rate 0.33% among 330,000 | AID 1259311, 2017;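 active means z-score of -3 or lower and OD600 up to 0.18 on both plates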;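 further: plate controls were untreated cells for no effect and reference antibiotic for full effect; stock transfer was 100 nL into about 80 µL; one replicate is shown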
Mtb hypoxia inh growth = second read-out of Mtb hypoxia inh, no call of its own (marks repeat the call); growth inhibition, %; measured here: M. tuberculosis growth (absorbance);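 0% = vehicle and 100% = reference antibiotic; read after six days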
Numbers without * were called inactive; ? = inconclusive; . = no result given; & = joins results of further samples.

Results follow in this order: Mtb hypoxia inh, Mtb hypoxia inh growth, ugtP null kill, BJeLR viability, Bead autofluor, PrP 5UTR inh, Sa RN4220 lethal
COC(=O)CC1c2cc(C(F)(F)F)ccc2S(=O)(=O)N1C(C)(C)C (configuration not stated)
    17, 10, 1, ., ., ., 6.0
Cc1cc(C=NNC(=O)c2cccs2)c(C)n1-c1ccc2ncccc2c1
    12, 6, -9, ., ., ., -17
Cc1ccc(OCC(=O)NNC(=O)c2cc3ccccc3o2)cc1
    ., ., 1, 12, 3790, -8, -3.2
C#CCOCCOCCOCCNc1nc(N2CCN(C(=O)CCCCCCCCCCNC(=O)C(CCC(=O)O)n3cc(CCCCCN)nn3)CC2)nc(N2CCN(C(=O)CCCCCCCCCCNC(=O)C(C(C)O)n3cc(C)nn3)CC2)n1 (configuration not stated)
    2, 4, -2, ., ., ., 7.9
COc1cccc(OC)c1NC(=O)Cn1nc(-c2ccc3c(c2)OCCO3)ccc1=O
    -6, -7, 8, -8, 5433, -10, -1.0
CC1CCCN(C2=C(NS(=O)(=O)c3ccc(Br)cc3)C(=O)c3ccccc3C2=O)C1 (configuration not stated)
    ., ., ., 0, 4924, -26, .
O=C(c1ccco1)N1CCN(S(=O)(=O)/C=C/c2ccccc2)CC1
    3, 2, 8, 7, 4273, 56*, 0.9
CC(=O)Nc1ccc(NC(C)=O)s1
    0, -6, 6, -3, 5049, 5, 1.7
CSCCC(NC(=O)c1ccco1)C(=O)NCC1CCCCC1 (configuration not stated)
    0, -1, 3, ., 2826, 18, -0.2
CCN(C(=O)COC(=O)CSc1ccccc1)c1c(N)n(Cc2ccccc2)c(=O)[nH]c1=O
    3, -4, 1, 4, ?, -7, -5.0

Some of these compounds in order of length of the SMILES, lowest first.
Results follow in this order: Mtb hypoxia inh, Mtb hypoxia inh growth, ugtP null kill, BJeLR viability, Bead autofluor, PrP 5UTR inh, Sa RN4220 lethal
CC(=O)Nc1ccc(NC(C)=O)s1
    0, -6, 6, -3, 5049, 5, 1.7
Cc1cc(C=NNC(=O)c2cccs2)c(C)n1-c1ccc2ncccc2c1
    12, 6, -9, ., ., ., -17
C#CCOCCOCCOCCNc1nc(N2CCN(C(=O)CCCCCCCCCCNC(=O)C(CCC(=O)O)n3cc(CCCCCN)nn3)CC2)nc(N2CCN(C(=O)CCCCCCCCCCNC(=O)C(C(C)O)n3cc(C)nn3)CC2)n1 (configuration not stated)
    2, 4, -2, ., ., ., 7.9

Next results follow:
Results follow in this order: Mtb hypoxia inh, Mtb hypoxia inh growth, ugtP null kill, BJeLR viability, Bead autofluor, PrP 5UTR inh, Sa RN4220 lethal
O=C(Nc1cccc2c1C(=O)NC2=O)c1cccnc1Cl
    13, 11, 5, 0, 4558, -16, 6.6
COc1ccc(C(=O)CC(=O)C(=O)Nc2cccc(C(C)=O)c2)cc1
    0, 14, 8, -6, 3553, -20, 3.7
COc1ccccc1N1CCN(N=Cc2ccc(OC)c(OC)c2OC)CC1
    10, 4, 0, ., ., ., 5.9
CC(=O)N1c2ccc(S(=O)(=O)N3CCC(C(=O)Nc4cccc(Cl)c4)CC3)cc2CC1C (configuration not stated)
    -12, 7, 0, -14, 5541, 1, -5.9
CC(=O)c1ccc(-c2cccc(-c3cc(=O)oc4ccc(C(C)(C)C)cc34)c2)cc1
    -3, 7, 4, ., 3330, -6, 0.6
O=C(Cn1cnc2c(nnn2-c2cccc(F)c2)c1=O)Nc1ccc2c(c1)OCCO2
    -1, -3, -3, -7, 6158, -13, -0.2
O=C(NCc1ccc2c(c1)OCO2)c1ccc(CSCc2ccc(Cl)cc2)o1
    -6, -2, 8, -15, 2468, -4, -1.4
CCn1c2ccccc2c2cc(NC(=O)CSc3nnc(-c4ccccc4)o3)ccc21
    10, 4, -9, -3, 3321, -7, 8.3
O=C(c1ccccc1)N1CCC(O)(c2ccc3c(c2)OCO3)CC1
    3, 11, -5, -7, 3052, -23, 7.8
O=C(NC(=O)c1ccccc1)OCCN1C(=O)c2ccccc2C1=O
    0, 5, 4, -5, 4354, -27, 1.6
O=[N+]([O-])c1ccc(Nc2ccc(Cl)cc2)nc1
    14, 8, -9, 2, 5389, -29, -4.9
COC(=O)C1=C(c2ccc(OC)c(OC)c2)CC2CCC1N2C(=O)NCc1cc(C)oc1C(F)(F)F (configuration not stated)
    1, 8, 4, ., ., ., 6.5
COc1ccc2c3c(cccc13)N(C)N=C2C
    ., ., 11, 1, 3414, -26, -10
Cc1ccc(NC(=O)c2sccc2-n2cccc2)c(Cl)c1
    0, 19, 47, 1, 2468, 1, 15
CC1(C)COC(Cn2c3ccccc3c3ccccc32)O1 (configuration not stated)
    8, 2, 14, -2, 5323, -10, 1.1
CN(C)CC(C(=O)Cc1ccccc1)c1ccccc1 (configuration not stated)
    25, 30, 56, ., 3732, -14, 9.7
O=C(CSc1ncn(-c2ccccc2)n1)N1CCc2ccccc21
    ., ., -3, ., 4546, -21, -0.4
O=C(CSc1nnc(COc2ccc(Cl)cc2)o1)N1CCN(c2ccccc2)CC1
    ., ., -8, -10, 4336, -22, 4.7
COC1=NC2=NCCN2C(OC)=N1
    10, 9, 4, ., 3772, -16, 1.9
O=C(COc1ccccc1C=C1SC(=O)NC1=O)Nc1ccc(F)cc1
    4, 14, 38, ., ., ., 49

Full records from above. Order of values: Mtb hypoxia inh | Mtb hypoxia inh growth | ugtP null kill | BJeLR viability | Bead autofluor | PrP 5UTR inh | Sa RN4220 lethal
COC(=O)C1=C(c2ccc(OC)c(OC)c2)CC2CCC1N2C(=O)NCc1cc(C)oc1C(F)(F)F (configuration not stated) in the list: 1 | 8 | 4 | . | . | . | 6.5
COc1ccc2c3c(cccc13)N(C)N=C2C in the list: . | . | 11 | 1 | 3414 | -26 | -10
CC1(C)COC(Cn2c3ccccc3c3ccccc32)O1 (configuration not stated) in the list: 8 | 2 | 14 | -2 | 5323 | -10 | 1.1

The list continues:
Results follow in this order: Mtb hypoxia inh, Mtb hypoxia inh growth, ugtP null kill, BJeLR viability, Bead autofluor, PrP 5UTR inh, Sa RN4220 lethal
C/C(=N\Nc1ncc(Cl)cc1Cl)c1ccccn1
    ., ., ., 67*, 5789, 78*, .
COC(=O)[C@@]1(Cc2ccc(OC)cc2)C2c3cc(C(=O)N(C)C)n(CC(O)CO)c3CC2CN1C(=O)c1ccccc1 (some centres not stated)
    14, 9, 1, ., ., ., 1.4
O=C(Oc1cccc2cccnc12)c1cccs1
    12, 6, 53, -3, 2404, -21, 13
Cc1noc(C)c1CSCC(=O)Nc1cc(C(F)(F)F)ccc1N1CCOCC1
    5, -9, -4, ., 3038, -18, 6.1
O=C1C2CCCN2C(c2cccnc2)N1c1cccc(Cl)c1 (configuration not stated)
    7, 3, 9, 22, 6033, 2, 0.2
NC(=O)c1ccc(C(=O)N/N=C(/Cc2ccccc2)c2ccccc2)cc1
    ., ., ., 6, 5885, -19, .
COc1cccc(-c2nnn(CCC(=O)O)n2)c1
    6, 2, -1, 2, 19600*, -9, 4.8
Cc1ccc(CNC(=O)C2CCCN2C(=O)Nc2cccc(Cl)c2)cc1 (configuration not stated)
    -4, -1, -2, -1, 3323, -19, -0.2
Fc1ccc(/C=N\Nc2cccc(F)c2)cc1
    ., ., ., 3, 4235, -16, .
CC(Cc1ccccc1)NC(=O)C(c1ccc(N)cc1)c1ccc(N)cc1 (configuration not stated)
    6, 12, 8, 0, 4550, -17, 1.7
Cc1ccc(C(=O)N/C(=C/c2cccs2)C(=O)NCCCn2ccnc2)cc1
    -4, -5, 11, -5, 2533, -7, 7.1
Cc1ccc(NC(=O)CCCn2c(=S)[nH]c3ccsc3c2=O)cc1C
    2, 3, 12, 0, 5193, -23, 6.5
O=C(CN1CCC(NC(=O)Cc2ccccc2)CC1)Nc1ccccc1Br
    2, 4, -1, 6, 2681, -12, 6.5
O=C(NC(=S)NCCCN1CCOCC1)c1cccc2ccccc12
    12, 12, 8, 3, 3335, 0, 5.8
COc1ccc(N2CCN(C(=S)Nc3cccc(OC)c3)CC2)cc1
    10, -5, 3, -9, 4081, -19, 2.6
COc1ccc(NC(=O)Nc2ccccc2F)c(C)c1
    13, 0, 6, -11, 2328, -38, 1.0
NC(=S)N/N=C/c1coc2ccccc2c1=O
    ., ., ., -7, 2253, -21, .
CCOC(=O)C1=C(C)N=c2s/c(=C\c3ccc(OCC(=O)O)cc3)c(=O)n2C1c1ccccc1OC (configuration not stated)
    ., ., ., 0, 4135, -19, .
Cc1ccc2c(c1)nnn2C1CCN(C(=O)C23CC4CC(CC(C4)C2)C3)CC1
    7, 9, 3, -6, 10657, -22, 6.6
COC(=O)c1ccc(C=NNc2nc(-c3ccccc3)cs2)cc1
    12, 13, 6, ., ., ., 5.7
Clc1ccc(Nc2c3c(nc4ncnn24)CCC3)cc1
    -7, 8, 2, -7, 4360, -23, 2.0
CCCC(=O)Nc1nc(C)c(-c2csc(Nc3ccccc3OC)n2)s1
    7, 9, 3, -1, 3451, 11, 4.3
Cc1nn(C(=O)c2c([N+](=O)[O-])cnn2C)c(C)c1Cl
    7, -1, 1, 2, 3079, 2, -0.7
N/C(=N\S(=O)(=O)c1cccs1)c1ccccc1
    ., ., 7, -1, 4928, 2, 1.3
O=C(C1=CC(c2ccc(Br)cc2)CC(OCc2ccc(CO)cc2)O1)N1CCOCC1 (configuration not stated)
    16&16, 8&10, 2&-11, ., ., ., 6.9&2.7
CN(CC(=O)Nc1ccc(Cl)cc1)c1ccc(S(=O)(=O)N2CCCCC2)cc1[N+](=O)[O-]
    3, -2, -33, 2, 2256, -10, -11
CCCCOc1ccccc1C=NNC(=O)CC#N
    4, 6, -3, ., ., ., 5.5
CC(C)C(=O)NN(C(=O)C(C)C)c1nc2ccccc2s1
    1, 10, 0, 8, 3996, -13, 0.0
Cc1cccn2c(CN3CCCN(C=O)CC3)c(C(=O)N(C)CCc3ccccc3)nc12
    0, 8, 6, -11, 4464, -9, -0.5
O=C(c1cc2cc(Br)ccc2oc1=O)N1CCCC1
    9, 3, 1, 9, 11604, -6, -0.3

In the list so far, these have a COOH group.
Results follow in this order: Mtb hypoxia inh, Mtb hypoxia inh growth, ugtP null kill, BJeLR viability, Bead autofluor, PrP 5UTR inh, Sa RN4220 lethal
C#CCOCCOCCOCCNc1nc(N2CCN(C(=O)CCCCCCCCCCNC(=O)C(CCC(=O)O)n3cc(CCCCCN)nn3)CC2)nc(N2CCN(C(=O)CCCCCCCCCCNC(=O)C(C(C)O)n3cc(C)nn3)CC2)n1 (configuration not stated)
    2, 4, -2, ., ., ., 7.9
COc1cccc(-c2nnn(CCC(=O)O)n2)c1
    6, 2, -1, 2, 19600*, -9, 4.8
CCOC(=O)C1=C(C)N=c2s/c(=C\c3ccc(OCC(=O)O)cc3)c(=O)n2C1c1ccccc1OC (configuration not stated)
    ., ., ., 0, 4135, -19, .

Next compounds.
Results follow in this order: Mtb hypoxia inh, Mtb hypoxia inh growth, ugtP null kill, BJeLR viability, Bead autofluor, PrP 5UTR inh, Sa RN4220 lethal
COc1cccc(NC(=O)c2cn(C)c(=O)c3cc(OC)c(OC)cc23)c1
    ., ., -2, -5, 2678, -17, -0.7
CC1Cc2ccccc2N1C(=O)C1CC(=O)N(c2ccccc2)C1 (configuration not stated)
    2, -3, 0, -8, 3997, -13, 4.0
CCCNC(=O)c1ccc2c(c1)CCN2S(C)(=O)=O
    10, -7, 9, 3, 3487, -14, 0.4
Cc1ccc(CNC(=O)C2CC3Cn4c(nc5cc6ccccc6cc54)C3N2C)o1 (configuration not stated)
    2, -1, 0, -14, 4310, -11, 2.3
Cc1cc(C)cc(-n2cc(C(=O)O)c(=O)cc2C)c1
    -9, -4, 5, 8, 2071, -18, 3.0
Cc1cc(C)n(-c2nc3c(c(=O)[nH]c(=O)n3C)n2C(C)C)n1
    11, 4, 6, 1, 2838, -11, 7.6
CCOC(=O)c1c(C=O)c2ccccc2n1CC
    ., ., ., -4, 4310, -11, .
COc1ccc2c3c(cccc13)OCC2=O
    ., ., -1, 3, 2433, -10, -0.2
Cc1cccc(C)c1NC(=O)C1c2cccc[n+]2CC(=O)N1Cc1ccc2c(c1)OCO2 (configuration not stated)
    -4, 2, -2, 1, 6074, -9, 7.2
Cc1ccc(C)c(C2=CSC3=NS(=O)(=O)CCN23)c1
    8, 6, 2, 0, 9281, 6, 1.2
CC(C)COP(=O)(c1ccc(N(C)C)cc1)C(O)c1ccccc1F (configuration not stated)
    15, 3, -10, 0, 10219, -28, 6.6

Assay outcomes as filed in PubChem.
